# Hsc70 = Hsc70 inhibitors, probe displacement, primary screen, biochemical, fluorescence polarization (AID 568) | Heat shock cognate 71 kDa protein (Homo sapiens) | Hsc70 fluorescence polarization, probe displacement; higher % means a stronger effect; strong numbers were not always called active | one-dose displacement, % at 20 µM; IC50 in µM for titrated hits | 83,000 tested, under 10 active;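 active = displacement above 50% without optical interference and an IC50 on retest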;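 note: ATPase domain with a fluorescein-tagged ATP probe; 0% = vehicle and 100% = excess ADP; read after one hour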
# MT1-MMP reporter = inhibitors of MT1-MMP promoter transcription, cell-based, luciferase reporter, luminescence (AID 618); MT1-MMP promoter luciferase reporter cells, luminescence; calls from a first round at 10 µM; hits with a dose series show EC50 in µM; 0.62% of 87,000 active;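 active = over half of the reporter light lost at 10 µM or EC50 under 50 µM; inactive = the rest and hits that failed the dose series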;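 note: actives suppress MT1-MMP promoter-driven transcription so potencies describe inhibitors; HT1080 fibrosarcoma cells; overnight exposure; toxic or luciferase-blocking compounds were not removed from the actives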
# WNV NS2B-NS3 inh = inhibitors of WNV NS2B-NS3 protease, primary screen, biochemical, fluorogenic substrate | fluorogenic substrate Ex360/Em465; stronger effect = lower value | z-score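 (tested at a level between 10 and 100 µM)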 | 0.18% of 65,000 active | AID 577, 2007;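 active = z-score at -3 or under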;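 note: score is relative to mean and spread of the compound wells of a plate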
# Target sequence (P06935 1371-1501 limits assumed): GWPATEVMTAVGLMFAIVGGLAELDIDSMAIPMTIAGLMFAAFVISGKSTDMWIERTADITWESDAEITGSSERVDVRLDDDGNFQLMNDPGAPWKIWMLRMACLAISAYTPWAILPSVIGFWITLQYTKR
# Target sequence (P06935 1502-1679 limits assumed): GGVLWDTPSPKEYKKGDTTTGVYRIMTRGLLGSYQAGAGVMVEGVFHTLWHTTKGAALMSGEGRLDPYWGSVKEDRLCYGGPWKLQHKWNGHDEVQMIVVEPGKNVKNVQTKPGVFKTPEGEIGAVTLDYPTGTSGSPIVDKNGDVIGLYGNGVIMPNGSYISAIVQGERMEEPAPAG
# An asterisk follows results filed as active; i = inactive; / = no result given.
SMILES,Hsc70,MT1-MMP reporter,WNV NS2B-NS3 inh
Cc1nc(N)sc1-c1nnc(SCC(=O)Nc2nccs2)n1C,2.0%,i,-1.6
Cc1ccc2oc(-c3ccc(NC(=O)c4ccc5c(c4)OCO5)cc3)nc2c1,-24%,i,-0.02
COc1ccc(S(=O)(=O)Nc2nnc(C(C)C)s2)cc1,-4.7%,i,0.06
CCOc1ccc(N(CC(=O)NC2CCCC(C)C2C)S(=O)(=O)c2c(C)noc2C)cc1 (stereo unspecified),-2.2%,i,0.6
O=C(NCN1CCN(c2ccccn2)CC1)c1cnccn1,-3.1%,i,-0.18
COC(CNC(=O)C1CC(=O)N(CCc2ccccc2)C1)OC (stereo unspecified),-6.2%,i,/
CCOC(=O)COc1ccc2cc(C(=O)OCC)c(=O)oc2c1,-4.1%,i,0.07
CCN(CC)S(=O)(=O)c1ccc(OCC(=O)NCc2ccccc2)cc1,3.2%,i,-1.4
CC1=C(C(=O)NCc2ccccc2)C(c2ccc(C)o2)n2ncnc2N1 (stereo unspecified),-1.6%,i,1.1
Cc1ccc2cc3c(NC(=O)C4CCCO4)nn(CC(C)C)c3nc2c1 (stereo unspecified),1.8%,i,/
Cn1nnnc1NCc1c(F)cccc1Cl,4.1%,i,-1.4
COc1ccc(S(=O)(=O)NCc2csc(C)n2)cc1,-4.0%,i,0.37
CCOc1ccc(OCCOc2ncnc3ccccc23)cc1,-2.4%,i,/
CC(=O)Nc1ccc(NC(=O)CCCCCN2C(=O)c3ccccc3C2=O)cc1,2.2%,i,/
COc1ccc2c(c1)c(=O)oc1cc(OCC(=O)N3CCCC(C)C3)ccc12 (stereo unspecified),0.0%,i,0.32
COc1ccc(-c2ccc(=O)n(CC(=O)NCc3ccco3)n2)cc1,-7.1%,i,-0.88
COc1cc(NC(=O)c2ccccc2Cl)c(OC)cc1NC(=O)CN1CCOCC1,8.4%,i,-0.53
COc1cc(CNC2CCCC2)cc(OC)c1,-0.2%,i,-0.19
O=C(c1cc2sccc2n1Cc1ccccc1)N1CCc2ccccc21,-1.2%,i,0.61
COc1cccc2c(=O)c3c(cnn3C)n(C)c12,0.6%,i,0.76
Cc1cc(C)n2nc(SCC(=O)N(C)Cc3ccccc3)nc2n1,-1.9%,i,1.5
O=c1[nH]c2ccccc2nc1N1CCOCC1,0.7%,i,/
CCN1CC2=C(OC(N)=C(C#N)C2c2cccs2)/C(=C/c2cccs2)C1 (stereo unspecified),-15%,i,-1.2
COCc1cc(CN2CCN(C)CC2)c(O)c2ncccc12,3.2%,i,/
CC1CN(C(=O)c2scc3c2OCCO3)CC(C)O1 (stereo unspecified),-1.3%,i,0.82
NC(=O)C1CCN(c2nc(C3CC3)nc3c2nnn3Cc2ccccc2Cl)CC1,0.5%,i,-0.11
CCCn1c(SCC(=O)NCC2CCCO2)nc2c1c(=O)n(C)c(=O)n2C (stereo unspecified),-0.1%,i,1
COc1ccc(Nc2ncnc3c2cnn3-c2cccc(C)c2)cc1OC,3.3%,i,-0.45
CCC1(C)Cc2c(sc3nc(NN)n(C)c(=O)c23)CO1 (stereo unspecified),-0.8%,i,/
CCN(CC)c1ccc(NC(=O)c2ccco2)cc1,2.8%,i,0.97

# By substructure: those above containing sulfur (11)
SMILES,Hsc70,MT1-MMP reporter,WNV NS2B-NS3 inh
Cc1nc(N)sc1-c1nnc(SCC(=O)Nc2nccs2)n1C,2.0%,i,-1.6
COc1ccc(S(=O)(=O)Nc2nnc(C(C)C)s2)cc1,-4.7%,i,0.06
CCOc1ccc(N(CC(=O)NC2CCCC(C)C2C)S(=O)(=O)c2c(C)noc2C)cc1 (stereo unspecified),-2.2%,i,0.6
CCN(CC)S(=O)(=O)c1ccc(OCC(=O)NCc2ccccc2)cc1,3.2%,i,-1.4
COc1ccc(S(=O)(=O)NCc2csc(C)n2)cc1,-4.0%,i,0.37
O=C(c1cc2sccc2n1Cc1ccccc1)N1CCc2ccccc21,-1.2%,i,0.61
Cc1cc(C)n2nc(SCC(=O)N(C)Cc3ccccc3)nc2n1,-1.9%,i,1.5
CCN1CC2=C(OC(N)=C(C#N)C2c2cccs2)/C(=C/c2cccs2)C1 (stereo unspecified),-15%,i,-1.2
CC1CN(C(=O)c2scc3c2OCCO3)CC(C)O1 (stereo unspecified),-1.3%,i,0.82
CCCn1c(SCC(=O)NCC2CCCO2)nc2c1c(=O)n(C)c(=O)n2C (stereo unspecified),-0.1%,i,1
CCC1(C)Cc2c(sc3nc(NN)n(C)c(=O)c23)CO1 (stereo unspecified),-0.8%,i,/

# Next part.
SMILES,Hsc70,MT1-MMP reporter,WNV NS2B-NS3 inh
Cn1c(Cc2ccccc2)nnc1SCC(=O)NC1CCCCC1,3.1%,i,-0.52
COC(=O)c1ccc(C2C(C(=O)c3cc4ccccc4o3)=C(O)C(=O)N2CCCN(C)C)cc1 (stereo unspecified),-5.1%,i,-0.18
O=C(O)Cc1ccc(C(=O)c2ccccc2F)s1,5.0%,i,/
Cc1cccc(C)c1NC(=O)Cn1c(=O)n(CCCC(=O)NCc2ccco2)c(=O)c2sccc21,-3.4%,i,-0.09
Cc1nn(Cc2cccc(C(=O)NCC(C)C)c2)c(C)c1Br,6.9%,i,/
CCSC1=C(C#N)C(c2ccc(OC)c(OC)c2)CC(=O)N1 (stereo unspecified),-0.8%,i,0.46
Cc1ccc(NC(=O)COc2ccc3oc4c(c3c2)CCCC4)nc1,-4.4%,i,-0.39
CCn1c(SCC(=O)NCc2ccc3c(c2)OCO3)nnc1-c1cccs1,-8.1%,i,-1.5
Cn1c(=O)[nH]c(=O)c2c1nc(Br)n2CCSc1nc2ccccc2o1,6.0%,i,0.3
COc1ccc(S(=O)(=O)N(CCc2ccccc2)CC(=O)NC(C)C)cc1,5.4%,i,/
O=c1c2[nH]c3ccccc3c2ncn1Cc1cccnc1,0.0%,i,-0.04
COc1ccccc1NC(=O)C1C2C=CC3(CN(Cc4cccnc4)C(=O)C13)O2 (stereo unspecified),1.5%,i,-1
COc1cc(NC(=O)CN2C(=O)c3ccccc3S2(=O)=O)c(OC)cc1Cl,4.8%,i,0.8
Cc1occc1-c1nnc(SCC(=O)N2CC(=O)Nc3ccccc32)n1CC(C)C,-5.1%,i,0.28
O=C1C2C3C=CC(C3)C2C(=O)N1c1nc2ccccc2s1 (stereo unspecified),-1.4%,i,/
COc1cccc(C(=O)Nc2ccc(NC(=O)c3ccco3)cn2)c1,-1.3%,i,/
COc1ccc2c(c1OC)C(=O)NC(C)=C(C(=O)OC(C)(C)C)C2O (stereo unspecified),-0.5%,i,0.34
Cc1sc2nc(CN3CCOCC3)nc(N3CCC(C(N)=O)CC3)c2c1C,-1.0%,i,-1.2
CCOC(=O)C(C)On1c(SC(C)C(=O)OCC)nc2ccccc2c1=O (stereo unspecified),1.6%,i,1
CCN1C(=O)c2c(C)nc3ccccc3c2C1=O,1.4%,i,0.6
O=C1c2ccccc2S(=O)(=O)N1CC(O)Cn1ccc2ccccc21 (stereo unspecified),-4.2%,i,0.42
COc1cccc(OC)c1C(=O)Nc1ccccc1N1CCCC1,3.8%,i,-0.35
N#Cc1nc(-c2ccc(OCc3ccc(Cl)cc3)cc2)oc1N1CCC(C(N)=O)CC1,8.3%,i,-0.45
Cc1ccc2[nH]c(=O)c(-c3noc(-c4ccncc4)n3)cc2c1,-11%,i,-0.96
CCN1CCCC1CNCc1cc(OC)c(OC)c(OC)c1 (stereo unspecified),-0.1%,i,/
CCc1nc2oc(C(=O)c3ccccc3)c(N)c2c2c1COC(C)(C)C2,8.4%,i,0.26
Cc1nc2sc(C(c3ccccc3)N3CCN(CCO)CC3)c(O)n2n1 (stereo unspecified),-1.0%,i,-0.82
CC(=O)C1=C(O)C(=O)N(c2cccc(C(=O)O)c2)C1c1ccc(F)cc1 (stereo unspecified),-1.1%,i,-0.4
COc1ccc(Br)cc1C1CC(=O)N2CN(C)CSC2=C1C#N (stereo unspecified),-7.1%,i,0.82
Cc1nc2ccccc2c(=O)n1NCc1cccs1,-1.1%,i,-0.19
COCCCNC(=O)CNC(=S)N(Cc1ccccc1F)C1CCCCC1,-2.7%,i,/
CCn1c(=O)c2c(nc3n2CCCN3CCc2ccccc2)n(C)c1=O,-0.1%,i,-0.64
Cc1cc(NC(=O)COc2ccc(Cl)cc2Cl)n(-c2ccccc2)n1,-6.1%,i,/
O=C(NC1CCCCC1)c1nn2c(C(F)(F)F)cc(-c3ccco3)nc2c1Br,-30%,i,-0.09
CSCCC(NC(=O)c1ccco1)C(=O)OCC(=O)Nc1ncc(Cl)c(C)c1Cl (stereo unspecified),5.5%,i,/
COc1ccc(C(=O)NCC(=O)Nc2ccccc2)cc1OC,3.4%,i,-0.74
CCOC(=O)Nc1nc(C)c(C(=O)N(C)C)s1,-1.0%,i,-1.4
COc1ccccc1N1CCN(Cc2ccc(OC)c(OC)c2OC)CC1,2.7%,i,2.4
Cc1cnc(NC(=O)COc2cccc3c2OC(C)(C)C3)s1,-4.4%,i,/
COc1ccc(OC)c(C(c2nnnn2CC2CCCO2)N2CCN(C)CC2)c1 (stereo unspecified),-0.7%,i,-0.08
CN(CC(=O)NCc1ccccn1)S(=O)(=O)c1ccccc1,-4.6%,i,/
O=c1ccn(Cc2ccccc2Cl)cc1,-0.3%,i,0.48
CC(C)(C)n1nnnc1C(c1cccc(C#N)c1)N1CCCCCC1 (stereo unspecified),2.7%,i,/
O=C(c1ccc(N2CCCC2=O)cc1)N1CCOCC1,-5.6%,i,0.32
COc1ccc(OCCCN2CCCCCC2)cc1,3.2%,i,/

# Rewritten bar-delimited: part of the list above
compound | Hsc70 | MT1-MMP reporter | WNV NS2B-NS3 inh
CCc1nc2oc(C(=O)c3ccccc3)c(N)c2c2c1COC(C)(C)C2 | 8.4% | i | 0.26
COc1ccc(S(=O)(=O)Nc2nnc(C(C)C)s2)cc1 | -4.7% | i | 0.06

# (listing goes on)
SMILES,Hsc70,MT1-MMP reporter,WNV NS2B-NS3 inh
COc1ccc(Cl)cc1NC(=O)N1CCN(C2CCCCC2)CC1,-2.1%,i,0.0099
Cc1cc(C(=O)COC(=O)CN(C)S(=O)(=O)c2ccc(Cl)cc2)c(C)n1Cc1cccs1,2.8%,i,-0.15
COc1ccccc1NC(=O)CN1CCC(C(=O)c2ccc(F)cc2)CC1,5.1%,i,/
Cc1c(CN2CCCCC2)c(O)n(CCCO)c(=O)c1C#N,18%,i,-0.02
COc1cccc(OCc2cc(/C=N/NC(=O)c3nc(Cl)c(Cl)c(N)c3Cl)ccc2OC)c1,-24%,i,/
Cc1ccc2cc(CN(CCCN3CCOCC3)C(c3nnnn3Cc3ccco3)C(C)C)c(=O)[nH]c2c1C (stereo unspecified),-3.7%,i,/
O=C(OCC(=O)N(C1CCCCC1)C1CCCCC1)c1ccncc1,5.3%,i,1.2
CS(=O)(=O)N(CC(=O)NCc1ccc2c(c1)OCO2)c1ccc(Cl)cc1,-3.6%,i,-0.27
Cc1ccccc1CN(c1ccc(C(=O)Nc2ccccc2C(=O)N2CCCC2)cc1)S(C)(=O)=O,-4.8%,i,/
O=C(CCSc1nc(-c2ccco2)cc(C(F)(F)F)n1)NCc1ccccn1,-5.8%,i,0.25
CCOC(=O)Cc1csc(NC(=O)COc2ccccc2)n1,1.7%,i,-0.66
Cc1cc(S(=O)(=O)NC2CCCCC2)c(C)s1,7.7%,i,0.8
COC(=O)c1cc(NC(=O)C23CCC(C)(C(=O)O2)C3(C)C)cc(C(=O)OC)c1 (stereo unspecified),6.0%,i,-0.63
NC(=O)CN1CCCN(S(=O)(=O)c2ccc(Br)cc2)CC1,-1.3%,i,0.83
O=C(O)C1CCCN(S(=O)(=O)c2cccc3cccnc23)C1 (stereo unspecified),3.9%,i,-0.46
CCCNC(=O)c1cccc(Cn2nc(C)c(Br)c2C)c1,-2.1%,i,-0.49
CCSc1nnc(NC(=O)c2cc(C)on2)s1,7.1%,i,2.6
Cn1cnc2c1c(=O)n(Cc1c(Cl)cccc1Cl)c(=O)n2C,6.3%,i,0.28
CN(C)CCC(=O)c1ccc2c(c1)OCO2,-0.7%,i,0.19
Cc1ccc(NC(=O)CSc2nnc(-c3ccco3)c(-c3ccco3)n2)cc1,-0.4%,i,-1.3
O=C(CN1CCN(Cc2ccccc2F)C1=O)NCCN1CCOCC1,3.5%,i,-0.04
CCOC(=O)c1ccc(N=c2sc(C(=O)OC)cc(=O)n2CCCN2CCOCC2)cc1,-0.3%,i,0.27
CCc1cn(S(=O)(=O)c2ccccc2OC)nc1N,3.8%,i,/
COc1cccc(N2C(=O)c3ccncc3C2=O)c1,-2.8%,i,0.92
COc1ccc(CCNC(=O)Cn2cnc3c(nnn3Cc3ccc(C)cc3)c2=O)cc1OC,-4.6%,i,-0.04
Nc1nc(NC(=O)CCCC(=O)O)nn1-c1ccccc1,0.3%,i,-1.1
CCOc1ccc(S(=O)(=O)NCc2ccncc2)cc1,3.1%,i,/
CCCc1[nH]nc2c1C(c1ccc(OCCN3CCOCC3)c(OC)c1)C(C#N)=C(N)O2 (stereo unspecified),-5.7%,i,0.68
COc1ccc(CNS(=O)(=O)c2ccc(OC)cc2)cc1,-0.8%,i,-0.16
CCOc1ccc(-c2nc(C#N)c(N3CCCCCC3)o2)cc1,1.0%,i,-0.67
CCOCC(=O)Nc1nnc(COc2ccc(Cl)cc2)s1,-2.8%,i,-0.04
CCCCn1c(=O)[nH]c(=O)c2c1nc(-c1ccsc1)n2Cc1ccccc1,-0.2%,i,/
Cc1ccc2c(c1)c(C)cc(=O)n2CCC(=O)O,2.0%,i,-0.8
CCCC(=O)N1CCc2[nH]c3ccccc3c2C1,6.9%,i,0.16
